High-throughput results deposited in PubChem BioAssay by National Center for Advancing Translational Sciences (NCATS).
PINK1 expr mod – changes PINK1 expression; PINK1 immunofluorescence, high-content cytometry, 24 h; Potency, µM (titrated, usually from 76.6 µM), for inactives: top-dose activation (PINK1 increase), most hits filed as activators; hit rate 0.2% among 410,000; active = well fitted activation curve with a large enough effect; inconclusive = small, poorly fitted or top-dose-only effect; inactive = flat fitted curve, though single readings scatter; cell line not stated here;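 note: potency is the fitted concentration of half-maximal effect; % of control where 0% means no effect; nearly all actives have a fitted effect of over 65% in size; a mitochondrial uncoupler was the plate control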
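A stable cell line was treated with compounds at 5 concentrations for 24 hours, with CCCP as control. PINK1 levels and mitochondrial localization were measured by immunofluorescence with mitochondrial, cell and nuclear markers after fixation, read by laser-scanning cytometry.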
TRPML1 inh – inhibitors of human TRPML1 channel; Q9GZU1; TRPML1-inducible cells, Ca2+ dye fluorescence, FDSS; stronger effect = lower value; inhibition of EC80 agonist-evoked calcium signal; activity change, negative = inhibition, % (test concentration not listed); hit rate 0.02% among 390,000; in the data active means activity change below about -50%; inconclusive means about -30% to -50%; inactive means above about -30%;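 note: stimulus is agonist 54-4 at its EC80 concentration; % is set by controls: 0 for no effect and ±100 for the full control effect; compound concentration not given in the record; the text of the record puts the active cut at -80%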
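Calcium fluorescence in TRPML1-DL cells induced overnight with Tet: a 110 s read after compound pin addition, then a 110 s antagonist read after challenge with 54-4 at 4 uM final (EC80).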
Six1-Eya2 blk – inhibitors of human Six1/Eya2 interaction; Q15475+O00167; AlphaScreen GST-Six1/His-Eya2 binding, biochemical; stronger effect = lower value; control for the full effect not named in the record; activity change, % (concentration not given with the values); hit rate 0.56% among 360,000; AID 651725; in the data active = activity change below about -65%; inconclusive = about -30% to -65%; inactive = above about -30%; note: % is set by controls: 0 for no effect and ±100 for the full control effect
Target sequence (O00167 whole entry, looked up): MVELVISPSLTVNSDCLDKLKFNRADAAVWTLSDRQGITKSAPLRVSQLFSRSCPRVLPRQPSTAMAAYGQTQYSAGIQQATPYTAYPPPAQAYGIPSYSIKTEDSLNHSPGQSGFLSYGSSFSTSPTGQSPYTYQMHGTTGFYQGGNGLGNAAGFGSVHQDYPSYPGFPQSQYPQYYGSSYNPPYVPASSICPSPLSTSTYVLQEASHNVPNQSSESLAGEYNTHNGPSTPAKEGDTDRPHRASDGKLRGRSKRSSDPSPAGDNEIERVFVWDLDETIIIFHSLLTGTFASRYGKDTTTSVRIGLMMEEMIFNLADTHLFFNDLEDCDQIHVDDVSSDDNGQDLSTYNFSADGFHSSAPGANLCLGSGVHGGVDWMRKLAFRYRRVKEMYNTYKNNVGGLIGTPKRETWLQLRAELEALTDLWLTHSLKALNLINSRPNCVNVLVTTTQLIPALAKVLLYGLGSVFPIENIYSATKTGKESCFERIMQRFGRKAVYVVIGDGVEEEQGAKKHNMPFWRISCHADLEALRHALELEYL
Target sequence (Q15475 whole entry, looked up): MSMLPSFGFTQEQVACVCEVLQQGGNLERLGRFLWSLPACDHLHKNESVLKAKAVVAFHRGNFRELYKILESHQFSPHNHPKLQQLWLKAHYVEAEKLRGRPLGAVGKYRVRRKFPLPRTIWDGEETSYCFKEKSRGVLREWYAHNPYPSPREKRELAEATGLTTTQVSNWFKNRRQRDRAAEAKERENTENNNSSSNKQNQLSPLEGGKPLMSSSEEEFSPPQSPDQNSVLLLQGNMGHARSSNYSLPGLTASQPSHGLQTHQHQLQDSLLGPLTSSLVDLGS
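AlphaScreen luminescence read after one hour at 37 °C in darkness. Pin-transferred compounds met GST-Six1 and His-Eya2 protein (5X stock 250 nM/500 nM) plus glutathione donor and Ni-chelate acceptor beads (5X, 50 ug/mL).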
CtBP-E1A blk – blocks the CtBP interaction with E1A. AlphaScreen GST-E1A/His-CtBP binding, 1536-well; stronger effect = lower value; control for the full effect not named in the record. activity change, % (no concentration beside the values). hit rate 0.49% among 340,000. AID 651724; in the data active means activity change below about -65%; inconclusive means about -30% to -65%; inactive means above about -30%; note: % is set by controls: 0 for no effect and ±100 for the full control effect; compound concentration not given in the record
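In 5 uL wells, 23 nL compound meets equimolar GST-E1A and His-CtBP (5X stock 125 nM each) for 2 h, 37 °C. Beads (5X, 50 ug/mL) then 1 h, 37 °C, dark.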
D2 agonist – human D2 receptor agonism in beta-arrestin assay; P14416; DiscoveRx PathHunter D2 beta-arrestin, luminescence, 90 min; 100% = 57 uM dopamine signal; activation, % (no concentration beside the values); hit rate 0.084% among 360,000; AID 624465; in the data active = activation above about 40%; inconclusive = about 15% to 40%; inactive = below about 15%; note: compound concentration not given in the record; the text of the record calls up to 30% inactive
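Agonist mode: compounds alone added to overnight-plated D2 PathHunter cells for 90 min at 37 C, with 57 uM final dopamine (EC100) defining full response. Beta-arrestin recruitment detected by chemiluminescent reagent, read after 1 h at ambient temperature.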
TRPML1 ag – agonists of human TRPML1 channel | Q9GZU1 | TRPML1-expressing cells, Ca2+ dye fluorescence, FDSS; host cell line not named in the record; reference of the full effect not given here | activation, % (test concentration not listed) | hit rate 0.12% among 410,000; in the data active = activation above about 50%; inconclusive = about 30% to 50%; inactive = below about 30%; note: 0% is about no effect; the text of the record puts the active cut at 80%
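In this qHTS format, compounds were pin-transferred onto Ca8-dye-loaded TRPML1-DL cells induced with Tet overnight, and intracellular Ca2+ fluorescence was recorded kinetically for 110 s after a 10 s baseline. A subsequent 4uM final 54-4 (EC80) addition followed by a second 110 s read served as the antagonist phase.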
* marks the source's active call; other numbers are inactive results; ? = inconclusive; nt = not tested or not shown; & = joins results of further samples; [ ] = remark or other dose.

SMILES | PINK1 expr mod | TRPML1 inh | Six1-Eya2 blk | CtBP-E1A blk | D2 agonist | TRPML1 ag
Cc1ccc(NC(=O)NC2CCCN2S(=O)(=O)c2ccc(Cl)cc2)cc1 (stereo not given) | 9.2%[38.3 µM] | -4.8 | 0.4 | -3.8 | 3.1 | -0.3
CCN(C(=O)Cn1c(=O)oc2cc(S(=O)(=O)N3CCCC3)ccc21)c1cccc(C)c1 | 1.4% | 12.0 | nt | nt | nt | 0.0
O=C1CSCN1c1cc(Cl)ccc1Cl | -0.3% | 1.6 | 3.5 | 5.7 | -3.4 | 0.3
NC(=NC(=O)c1ccccc1)N1CCN(C(c2ccccc2)c2ccccc2)CC1 | 14.9% | -4.5 | -0.8 | 0.5 | -1.2 | -0.6
Cn1c(CN2CCN(C(=O)c3ccccc3Cl)CC2)nc2cc([N+](=O)[O-])ccc21 | 1.9% | -0.6 | 3.6 | 0.6 | 2.2 | 0.3
Cc1c(CC(=O)O)c(=O)oc2c(C)c(OCc3nn[nH]n3)ccc12 | 1.7% | -15.8 | -5.1 | -0.8 | 1.1 | -0.5
COc1ccc(N(C(=O)Cn2nnc3ccccc32)C(C(=O)NCc2ccco2)c2ccncc2)cc1 (stereo not given) | -0.5% | -12.4 | -10.2 | 1.3 | -0.4 | -0.7
O=[N+]([O-])c1ccc(CSc2nnc(Cc3ccccc3)o2)cc1 | 0.4% | 33.3 | -2.0 | -4.2 | 1.3 | 2.2
Cc1ccc(CNC(=O)CCC2CCCN(Cc3cc4ccccc4o3)C2)o1 (stereo not given) | 2.8% | -18.1 | -5.6 | -9.6 | -2.6 | -0.1
CC(=O)CC(=O)Nc1ccccc1NC(C)=O | -0.3% | 42.4 | -9.2 | -8.9 | 0.0 | -0.5
CCN(CC)S(=O)(=O)c1cccc(C(=O)OCC(=O)NCCN2C(=O)CSC2=O)c1 | 3.1% | 30.5 | 1.3 | 8.3 | -5.4 | -0.6
O=C(N/N=C/c1ccccc1O)/C(=C/c1ccccc1)CCO | -0.6% | 13.4 | -80.4* | 11.7 | 1.3 | -0.4
CN(C)Cc1cc2ccccc2c2c1COC2 | -0.5% | 6.6 | -0.1 | -18.1 | -7.0 | 0.7
COc1ccc([C@H]2Cc3cc(O)cc(O)c3C(=O)O2)cc1O | 2.2% | 2.7 | 1.0 | 0.0 | 0.4 | 0.6
C=CCNC(=O)COC(=O)CCC(=O)c1cccs1 | 3.7% | -1.2 | 0.7 | -4.1 | -1.5 | -0.7
COc1ccccc1NC(=O)Nc1ccncc1 | -1.5% | -23.9 | -13.8 | nt | 9.2 | -0.3
CCOC(=O)CSc1n[nH]c(NC(=O)c2cccc(C)c2)n1 | 5.3%[38.3 µM] | -4.1 | 0.0 | 15.2 | 1.2 | 2.5
COc1ccc(C(=O)C(CN2CCOCC2)c2ccccc2)cc1 (stereo not given) | -2.6%[38.3 µM] | -7.1 | 0.0 | -0.2 | -1.3 | -0.1
Cc1sc(NC(=O)c2cc3ccccc3oc2=O)c(C(=O)OC(C)C)c1-c1ccccc1 | -0.9% | -3.2 | -9.1 | -11.9 | -3.6 | 0.0
CCCNC(=O)c1ccccc1NC(=O)CN(c1ccccc1)S(=O)(=O)N(C)C | 1.0% | 0.0 | -3.5 | 1.0 | -5.9 | -0.3
CCCC(=O)Nc1c2c(nc3ccccc13)N(c1ccccc1)CC2 | ? | 0.7 | 7.8 | 13.8 | -4.9 | -0.5
COC(=O)c1ccc(Nc2ncnc3c2cnn3C)cc1 | 1.6% | -5.9 | nt | nt | nt | 0.1
COc1cccc(CNc2nc3cc(-c4ccccc4C)sc3c(=O)n2C)c1OC | 3.5% | nt | -10.2 | -3.0 | 3.4 | -0.2
NC(=O)C1=C[C@@H](c2ccc3c(c2)OCO3)C[C@@H](OCCCCO)O1 | 0.0% | 9.6 | 1.6 | 0.5 | -4.8 | 0.2
C=CCn1c(-c2ccc(OC)cc2)csc1=Nc1c(C)n(C)n(-c2ccccc2)c1=O | -3.4% | 30.2 | -1.5 | -5.0 | ? | 0.5
Cc1cc(C(C)(C)C)cc(S(=O)(=O)NCCO)c1C | 0.1% | 51.0 | 1.9 | 2.4 | -6.7 | 0.3
CN(CC(=O)Nc1ccc(N2CCOCC2)cc1)C(=O)c1cc2c(s1)CCCC2 | 1.1% | -4.3 | -14.7 | nt | -2.6 | -0.6
CC1CCc2nc(NC(=O)CCSc3ccccc3)sc2C1 (stereo not given) | 11.4% | -15.2 | 6.6 | 5.4 | -2.0 | 0.0
CC1(C)O[C@H]2[C@@H](O1)[C@@H](C(=O)Nc1ccccc1O)O[C@@H]1OC(C)(C)O[C@@H]12 | -0.8% | -10.6 | nt | nt | nt | 0.1
Cc1cccc(C(=O)Nc2ccc3c(c2)nc(C)n3C)c1 | -0.7% | 4.7 | 0.4 | -1.9 | 2.6 | -0.1

Compound profiles, from the list above:
`CCN(CC)S(=O)(=O)c1cccc(C(=O)OCC(=O)NCCN2C(=O)CSC2=O)c1` is entered as PINK1 expr mod = 3.1%; TRPML1 inh = 30.5; Six1-Eya2 blk = 1.3; CtBP-E1A blk = 8.3; D2 agonist = -5.4; TRPML1 ag = -0.6
`O=C1CSCN1c1cc(Cl)ccc1Cl` is entered as PINK1 expr mod = -0.3%; TRPML1 inh = 1.6; Six1-Eya2 blk = 3.5; CtBP-E1A blk = 5.7; D2 agonist = -3.4; TRPML1 ag = 0.3

New compounds follow:
SMILES | PINK1 expr mod | TRPML1 inh | Six1-Eya2 blk | CtBP-E1A blk | D2 agonist | TRPML1 ag
CCNC(=O)Oc1ccc[nH]c1=O | 0.5% | 5.1 | -2.6 | nt | 7.0 | -0.3
COc1cccc2c(O)c(-c3ccccc3)c(=O)[nH]c12 | -1.2% | 18.1 | 1.3 | 6.2 | -2.0 | 5.4
Cc1cc(C)n(C(=O)c2ccc(S(=O)(=O)N3CCOCC3)cc2)n1 | 4.6%[38.3 µM] | -4.4 | -0.9 | 0.6 | -0.1 | -0.2
Cc1c(C(=O)N2CC3(CC(c4cccc(NC(=O)CC(c5ccccc5)c5ccccc5)c4)=NO3)C[C@@H]2C(N)=O)cc([N+](=O)[O-])cc1[N+](=O)[O-] (stereo not given in full) | 1.4% | -9.2 | -5.7 | -0.9 | 6.4 | -0.9
O=C(Cc1ccc([N+](=O)[O-])cc1)Nc1ccc(Cl)cc1 | 2.5% | 2.8 | -5.1 | 3.5 | 12.6 | -0.5
COc1cccc2c1OCC/C2=N\NC(=O)C(C)Oc1ccc([N+](=O)[O-])cc1 (stereo not given) | -1.0% | 3.6 | 7.6 | 15.0 | -1.5 | 0.0
CN(CC(=O)Nc1cccc(F)c1)C(=O)c1cc(S(=O)(=O)N2CCN(c3ccccc3)CC2)ccc1Cl | 0.1% | -3.0 | -2.3 | -17.8 | -2.8 | 1.5
COc1ccc(NC(=O)CO/N=C/C(=O)Nc2ccccc2C)c([N+](=O)[O-])c1 | 0.6% | -6.8 | -14.1 | -22.4 | 10.2 | 5.1
Fc1ccc(-c2csc(NC3=NCCC3)n2)cc1 | 1.4% | 12.2 | -9.7 | -1.4 | -3.0 | -0.9
O=Cc1c(-c2ccc(Cl)cc2)oc2ccc(O)cc12 | 3.0% | 10.4 | 40.8 | -12.5 | 3.7 | 2.9
O=C(OCc1ccc([N+](=O)[O-])cc1)c1cc2ccccc2oc1=O | 1.7% | -5.2 | 6.0 | nt | -2.7 | -1.3
O=C(CSc1nnc(-c2ccco2)o1)NC1CCCCC1 | 0.2% | -8.6 | 1.1 | -0.5 | -4.0 | 0.3
CN(CC(=O)C(C(N)=O)c1ccccc1)c1ccccc1 (stereo not given) | -0.8% | -16.7 | 34.3 | 7.2 | -1.1 | 0.1
Cc1ccc(NC(=O)CN(C)C(=O)c2ccc(Sc3nncn3C)c([N+](=O)[O-])c2)cc1 | 0.5% | 2.4 | -3.2 | nt | 11.5 | 0.3
CCOc1ccc(NC(=O)CSc2nnc(-c3ccoc3C)n2CC2CCCO2)cc1 (stereo not given) | -1.4% | -1.5 | -2.3 | 0.0 | -2.9 | -1.2
COCCCN1C2=C(C(=O)CC(C)(C)C2)C(c2ccc(OC)c(OC)c2)C2=C1CC(C)(C)CC2=O | -0.4% | 19.7 | -0.6 | -2.6 | 8.2 | -0.3
O=C(O)CC1S/C(=N\N=C2CCCCCC2)N(c2ccccc2)C1=O (stereo not given) | 2.4% | -11.5 | 0.0 | 5.0 | -1.7 | 0.8
O=c1c2cccnc2n(-c2ccccc2)n1Cc1c(Cl)cccc1Cl | 1.7% | -20.9 | 12.0 | 2.9 | 1.1 | -0.2
O=C(/C=C/c1cc[n+](CC(=O)c2ccc3cccc4c3c2CC4)cc1)c1ccc2cccc3c2c1CC3 | 6.8% | nt | -0.3 | -10.8 | -4.5 | nt
N#C/C(=C(/O)Cc1ccccc1)P(=O)(c1ccccc1)c1ccccc1 | 1.1% | 11.4 | -14.4 | 9.4 | -0.4 | -0.2
COc1cc(C(C(=O)NC2CCCCC2)N(C(=O)Cc2c[nH]c3ccccc23)c2ccccc2C)cc(OC)c1OC (stereo not given) | 2.7% | 2.5 | -19.7 | -12.7 | -1.9 | 0.7
O=C(Nc1ccc2oc(-c3cccnc3)nc2c1)c1ccc(-c2ccccc2OC(F)(F)F)o1 | 17.1% | 9.5 | nt | nt | nt | -0.1
O=C1C2C(C(=O)N1/N=C/c1ccc([N+](=O)[O-])o1)C1C=CC2C12CC2 (stereo not given) | 2.2% | -22.2 | -7.8 | -4.2 | 1.7 | 1.4
Nc1nc(C2CC(=O)OC23CCCCC3)cs1 (stereo not given) | -1.8% | -5.2 | 4.4 | -9.7 | -1.8 | 0.9
COc1cc(C2C(C(=O)Nc3ccccc3OC)=C(C)Nc3ncnn32)ccc1O (stereo not given) | 0.9% | -8.9 | -2.5 | 0.1 | 4.3 | 0.0
Cc1csc(=O)n1CC(=O)OCC(=O)Nc1cc(S(=O)(=O)N2CCOCC2)ccc1Cl | -0.8% | -0.4 | -2.4 | 11.1 | -1.2 | -0.3
Cc1cc(C(=O)Cn2nc(C(=O)O)c3ccccc3c2=O)c(C)n1-c1ccc(F)cc1 | 1.5% | 18.0 | -27.2 | -7.0 | 1.2 | 3.8
C=CCOc1ccc2c(c1)c(=O)cc(C(=O)O)n2CC | 0.9% | -2.7 | 10.6 | 7.4 | -1.7 | 1.2
Cc1ccc(NC(=O)CSCc2cnn(-c3ccccc3)c2-n2cccc2)c(C)c1 | -1.1% | -10.7 | nt | nt | nt | 3.9
COCCN(CC1CCCN(C2Cc3ccccc3C2)C1)C(=O)CCSC (stereo not given) | -0.2% | -6.6 | -2.8 | 12.0 | -0.2 | 0.5
Cc1nn(-c2ccccc2)c(C)c1/C=N/n1c(-c2ccc(Cl)cc2)n[nH]c1=S | 2.0% | -6.9 | -9.7 | -12.3 | -1.8 | 0.6
CN(C(=O)c1ccc(NC(=O)Cc2cccc(NC(=O)C3CCCN(C(=O)C4CC4)C3)c2)cc1)C1CCCC1 (stereo not given) | 0.1% | -12.8 | -2.2 | -4.0 | 0.4 | 1.0
CCOC(=O)c1[nH]cnc1C(=O)Nc1cccc(OC)c1 | 1.4%&0.1% | 35.5&18.3 | ? | -9.8 | -2.4 | 0.0&0.0
